High-throughput results: PubChem BioAssay, several laboratories
LANA-H2A inh: blockers of LANA interaction with H2A/H2B – biochemical, FP readout, HTS, primary screen; inhibition, % (no concentration beside the values); 320,000 tested, 0.6% active; cell-free LANA-H2A/H2B peptide, fluorescence polarization; AID 2629, 2010; Protein LANA1 (Human herpesvirus 8 type P (isolate GK18)), Q9QR71; in the data active = inhibition mostly above about 10%, no sharp cut-off; inactive = mostly below about 6.7%;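 note: stock transfer was 7.5 nL into about 10 µL; 0% = median of vehicle wells and 100% = median of positive control wells; one replicate is shown; the record names a cut of 25% in any replicate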
Vif A3G: inhibitors of Vif binding to APOBEC3G peptide, primary screen, biochemical, TR-FRET, GST-Vif 1-94, biotin-A3G peptide, dose response retest (AID 1117319); one-dose inhibition, %; IC50 in µM for titrated hits; 260,000 tested, 0.57% active; TR-FRET GST-Vif / biotin-A3G peptide binding; higher % means a stronger effect; test concentration not given here; strong numbers were not always called active;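 active = above the screen mean plus three standard deviations and confirmed in dose response; inconclusive = results disagree or hit not tested in dose response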;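 note: Vif residues 1-94 fused to GST binding biotinylated APOBEC3G peptide 110-148; 0% = full assay without inhibitor and 100% = GST in place of GST-Vif; retest series ran down from 100 µM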
B2AR ag: beta2AR agonists driving receptor internalization, primary screen, cell-based, FAP fluorogen, flow cytometry. Beta-2 adrenergic receptor (Homo sapiens), P07550. Am2.2-beta2AR cells; reference of the scale not given here. response, % (concentration not given with the values). 340,000 tested, 0.43% active;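 active = response above a set limit, near 3 SD of response in nonfluorescent compounds, cut at about 42% in these data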;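 note: stock transfer was 100 nL into about 11 µL; a reference agonist was the positive control; negative values mostly stem from fluorescent compounds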
HNF4A DNA FP: change in binding of human HNF4A to DNA, primary screen, biochemical, fluorescence polarization, FITC-DNA; 1 h; activity change, % at 10 µM; 360,000 tested, 0.3% active; in the data active = activity change above about 30%, passing the limit was not always enough;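 note: controls were the assay level and a saturating level of protein; the project sought stronger binding though the title names inhibitors; some compounds called inactive have numbers as strong as hits; positive values seem to mean higher polarization but the record does not say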
Target sequence (P41235 whole entry, looked up): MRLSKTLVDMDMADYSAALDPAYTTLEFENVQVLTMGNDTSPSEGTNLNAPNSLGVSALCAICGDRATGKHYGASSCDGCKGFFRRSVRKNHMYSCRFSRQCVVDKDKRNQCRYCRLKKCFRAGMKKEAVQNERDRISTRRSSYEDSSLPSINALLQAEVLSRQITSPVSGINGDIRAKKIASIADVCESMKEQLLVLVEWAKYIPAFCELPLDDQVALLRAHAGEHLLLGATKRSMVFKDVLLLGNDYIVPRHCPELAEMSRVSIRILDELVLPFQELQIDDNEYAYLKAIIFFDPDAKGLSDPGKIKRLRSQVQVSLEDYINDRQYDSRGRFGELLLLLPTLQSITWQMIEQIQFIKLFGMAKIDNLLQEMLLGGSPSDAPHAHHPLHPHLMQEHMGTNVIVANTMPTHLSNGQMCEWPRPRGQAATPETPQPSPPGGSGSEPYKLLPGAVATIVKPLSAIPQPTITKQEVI
UCH37 DUB inh: inhibitors of human UCH37 deubiquitinase, primary screen, biochemical, Ub-AMC cleavage, fluorescence. inhibition, % (concentration not given with the values). AID 588478, 2011. 330,000 tested, 0.33% active. Ubiquitin carboxyl-terminal hydrolase isozyme L5 (Homo sapiens), Q9Y5K5. purified proteasome/UCH37;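 active = mean of two replicates above 20%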;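 note: 0% = compound-free wells with enzyme and 100% = wells lacking proteasome; stock transfer was 100 nL into about 20 µL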
Target sequence (Q9Y5K5 whole entry, looked up): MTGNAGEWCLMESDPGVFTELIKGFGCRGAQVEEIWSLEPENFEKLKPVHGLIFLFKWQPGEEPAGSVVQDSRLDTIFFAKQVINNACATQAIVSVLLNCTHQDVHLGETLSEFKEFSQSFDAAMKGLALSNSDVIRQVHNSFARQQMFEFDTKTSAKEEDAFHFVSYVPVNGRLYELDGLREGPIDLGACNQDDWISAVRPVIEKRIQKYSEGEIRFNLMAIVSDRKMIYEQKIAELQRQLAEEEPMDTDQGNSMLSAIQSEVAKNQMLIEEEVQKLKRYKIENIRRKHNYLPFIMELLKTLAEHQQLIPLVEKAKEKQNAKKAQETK
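Material: human UCH37 enzyme supplied as purified proteasome complex / Amount: 0.15 nM proteasome as dispensed / Buffer or medium: pH 7.4 Tris-HCl (50 mM) with ovalbumin, ATP-MgCl2, DTT / Times: preincubation 30 min, reaction 25 min, room temperature / Technique: AMC fluorescence from Ub-AMC cleavage, excitation 355 nm, emission 460 nm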
Ecoli growth: E. coli growth inhibition, primary screen, OD600; Escherichia coli growth, 23 h; hits give low values; OD600 absorbance (test concentration not listed); 330,000 tested, 0.21% active; AID 1053175, 2014;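 active = OD600 absorbance below the run mean of sample wells minus 3.6 SD, in any replicate, cut at about 0.56 in these data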;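 note: stock transfer was 300 nL into about 60 µL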
A1 inh: caspase 3/7 activation in MEF A1-2A-BIM cells, primary screen, A1 inhibitor project, cell-based, luminescence, HTS | 330,000 tested, 0.066% active | Caspase-Glo 3/7 luminescence, 3 h; percent of clofoctol response, vehicle zero | caspase activation, % (no concentration beside the values);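 active = over half of replicate activation scores above 10%, or exactly half above 10 with the replicate mean above 10; inconclusive = replicate mean below 10 yet half the replicates above 10; inactive = over half of replicates below 10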;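 note: wells of about 30 µL received 50 nL stock; many hits fall short of the cut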
Starred values were filed as active, the others as inactive; & = joins results of further samples.

O=C(/C=C/c1ccccc1Cl)N(Cc1ccccc1)C1CCS(=O)(=O)C1 (stereo not given) was read as LANA-H2A inh 0.5, B2AR ag -9, HNF4A DNA FP 0.6, UCH37 DUB inh 4.0, Ecoli growth 0.68 and A1 inh -0.9.
C/C(=N\NC(=O)CSc1ncccn1)c1ccc2c(c1)OCCO2 was read as LANA-H2A inh -0.3, B2AR ag -2, HNF4A DNA FP -3.0 and A1 inh 0.2.
Screening COc1ccc2[nH]c(C)c(C(=O)CN3CCN(C(=O)c4ccco4)CC3)c2c1 returned LANA-H2A inh 0.4, Vif A3G 4%, B2AR ag 5, HNF4A DNA FP 0.1, UCH37 DUB inh 1.1, Ecoli growth 0.7 and A1 inh -0.1.
`CC(=O)Nc1ccc(NC(=O)c2ccccc2N(C)S(=O)(=O)c2ccc(C)cc2)cc1` gave LANA-H2A inh 1.2, B2AR ag -5, HNF4A DNA FP 2.5, UCH37 DUB inh 5.9, Ecoli growth 0.62 and A1 inh 0.0.
Screening O=C(N/N=C/c1ccc(-n2ccnc2)cc1)c1cccs1 returned LANA-H2A inh 6.2, Vif A3G -8%, B2AR ag 0, HNF4A DNA FP -6.5 and A1 inh -2.4.
`Cn1nc(C(=O)N2CCCC2)c2ccccc2c1=O` gave LANA-H2A inh -3.3, Vif A3G -11%, B2AR ag -5, HNF4A DNA FP -1.4, UCH37 DUB inh 2.0, Ecoli growth 0.72 and A1 inh 0.2.
`O=c1c2ccccc2nc(SCc2cccc(F)c2)n1Cc1ccco1` gave LANA-H2A inh -5.0, Vif A3G 17%, B2AR ag 8, HNF4A DNA FP 1.0, UCH37 DUB inh 2.8, Ecoli growth 0.73 and A1 inh 0.7.
`CCCN(CC1CC1)C(=S)NC(=O)c1cc(Br)ccc1Cl` gave Vif A3G 3%, B2AR ag 14, HNF4A DNA FP -0.5, UCH37 DUB inh 0.1 and Ecoli growth 0.65.
For CCOC(=O)C1=NN(c2cccc(Cl)c2)C2=NC(C)=C(C(=O)OC)C(c3cccs3)N12 (stereo not given) the results were LANA-H2A inh 4.1, Vif A3G -4%, B2AR ag -3, HNF4A DNA FP -1.2, UCH37 DUB inh 1.2, Ecoli growth 0.72 and A1 inh 0.3.
C/C(Cc1ccccc1)=N\NC(=O)CNC(=O)c1ccc(C(C)(C)C)cc1 was read as LANA-H2A inh 5.2, Vif A3G 0%, B2AR ag 5, HNF4A DNA FP -1.9 and A1 inh 0.5.
For CCC(=O)N=c1sc2c(OC)ccc(OC)c2n1C the results were LANA-H2A inh 0.3, B2AR ag 1, HNF4A DNA FP -1.0, UCH37 DUB inh 2.4, Ecoli growth 0.79 and A1 inh 0.7.
CCOC(=O)CSc1ccc(C(=O)NCCCN2CCOCC2)cc1[N+](=O)[O-] was read as LANA-H2A inh 0.3, Vif A3G -9%, B2AR ag 5, HNF4A DNA FP -1.7, UCH37 DUB inh 1.8, Ecoli growth 0.67 and A1 inh 1.0.

A section from the list above, for reference:
`CCCN(CC1CC1)C(=S)NC(=O)c1cc(Br)ccc1Cl` gave Vif A3G 3%, B2AR ag 14, HNF4A DNA FP -0.5, UCH37 DUB inh 0.1 and Ecoli growth 0.65.
For CCOC(=O)C1=NN(c2cccc(Cl)c2)C2=NC(C)=C(C(=O)OC)C(c3cccs3)N12 (stereo not given) the results were LANA-H2A inh 4.1, Vif A3G -4%, B2AR ag -3, HNF4A DNA FP -1.2, UCH37 DUB inh 1.2, Ecoli growth 0.72 and A1 inh 0.3.

(more compounds)
For CCCCC(=O)NC(c1ccccc1Cl)c1ccc2cccnc2c1O (stereo not given) the results were LANA-H2A inh 11, B2AR ag 5, HNF4A DNA FP 4.8 and A1 inh -0.9.
Nc1nc2ccccc2n1Cc1ccc(Cl)c(Cl)c1 was read as LANA-H2A inh 1.6, B2AR ag 3, HNF4A DNA FP -1.7, UCH37 DUB inh 1.9, Ecoli growth 0.44* and A1 inh -0.2.
CCOCCCNC(=O)c1c[nH]c2cc(OC)ccc2c1=O was read as LANA-H2A inh -2.6, Vif A3G 2%, B2AR ag 1, HNF4A DNA FP 2.2, UCH37 DUB inh 2.8, Ecoli growth 0.69 and A1 inh 0.1.
CCc1cc(=O)oc2c(C)c(O[C@@H]3O[C@H](CO)[C@@H](O)[C@H](O)[C@H]3O)ccc12 was read as LANA-H2A inh 1.4, Vif A3G 4%, B2AR ag -2, HNF4A DNA FP -0.4, UCH37 DUB inh -1.7, Ecoli growth 0.67 and A1 inh 0.0.
Screening CN(C)/C=C1\SC(=S)N(N2C(=O)C3C4C=CC(C4)C3C2=O)C1=O (stereo not given) returned LANA-H2A inh 3.4, B2AR ag 7, HNF4A DNA FP 1.7, UCH37 DUB inh 8.1, Ecoli growth 0.68 and A1 inh 1.0.
Screening COc1cc(Cc2cc(N)nc(N)n2)cc(OC)c1OC returned LANA-H2A inh 2.8, Vif A3G 0%, B2AR ag -4, HNF4A DNA FP 1.9, UCH37 DUB inh 3.8, Ecoli growth 0.051* and A1 inh 1.3.
`CCN(CC)c1ccc(NC(=O)CSc2nc3ccccc3c(=O)n2-c2cc(S(=O)(=O)N(C)C)ccc2C)cc1` gave LANA-H2A inh 0.3, B2AR ag 0, HNF4A DNA FP -1.4, UCH37 DUB inh -1.1, Ecoli growth 0.74 and A1 inh -0.8.
For CCN(CC(=O)Nc1c(F)cccc1F)C(=O)CCNC(=O)c1ccc([N+](=O)[O-])cc1 the results were LANA-H2A inh 0.4, Vif A3G 4%, B2AR ag -1, HNF4A DNA FP -2.7, UCH37 DUB inh 0.0, Ecoli growth 0.69 and A1 inh -0.3.
Screening COc1ccc(C(=O)N(CCCO)Cc2cc3c(C)ccc(C)c3[nH]c2=O)cc1OC returned Vif A3G 11%, B2AR ag -16, HNF4A DNA FP 5.7, UCH37 DUB inh -4.1 and Ecoli growth 0.74.
Screening O=C(COc1c(Cl)cccc1Cl)Nc1ccccc1N1CCCC1 returned LANA-H2A inh -2.6, B2AR ag 6, HNF4A DNA FP 15, UCH37 DUB inh 0.2, Ecoli growth 0.7 and A1 inh -0.8.
Screening CCCCC(=O)N/N=C/c1sccc1C returned LANA-H2A inh -6.6, Vif A3G -1%, B2AR ag -3, HNF4A DNA FP 1.0 and A1 inh -0.5.
For COc1ccc(C2=NOC(C(=O)NCc3cccs3)C2)cc1 (stereo not given) the results were LANA-H2A inh -6.1, Vif A3G -4%, B2AR ag -7, HNF4A DNA FP 1.9, UCH37 DUB inh 3.5, Ecoli growth 0.71 and A1 inh 0.9.
For O=C(Nc1ccc2c(c1)OCO2)c1ccc(N2CCCC2)c([N+](=O)[O-])c1 the results were LANA-H2A inh 4.3, Vif A3G 8%, B2AR ag -5, HNF4A DNA FP -1.8, UCH37 DUB inh -2.5, Ecoli growth 0.68 and A1 inh -0.6.
For Cc1ccc(NS(=O)(=O)c2ccc3c(c2)CCC(=O)N3)cc1 the results were LANA-H2A inh -2.0, Vif A3G 2%, B2AR ag -9, HNF4A DNA FP 2.5&0.8, UCH37 DUB inh -0.3, Ecoli growth 0.67 and A1 inh 0.8.
Screening Fc1ccc(Nc2nc(N3CCOCC3)nc(N3CCOCC3)n2)cc1 returned LANA-H2A inh -1.4, B2AR ag 6, HNF4A DNA FP 3.4, UCH37 DUB inh 1.5, Ecoli growth 0.68 and A1 inh 0.0.
`COc1ccc(Cl)cc1-c1n[nH]c(=S)n1C1CCCCC1` gave LANA-H2A inh 5.8, Vif A3G inconclusive, B2AR ag 0, HNF4A DNA FP -1.2, UCH37 DUB inh 0.5, Ecoli growth 0.67 and A1 inh -0.9.
Screening O=C(O)CCC(=O)N1N=C(c2c(-c3ccccc3)c3cc(Cl)ccc3[nH]c2=O)CC1c1cccs1 (stereo not given) returned LANA-H2A inh -1.2, Vif A3G 6%, B2AR ag -12, HNF4A DNA FP 1.4, UCH37 DUB inh -33, Ecoli growth 0.73 and A1 inh 0.3.
Screening CC(C)NC(=S)Nc1ccc2cn[nH]c2c1 returned LANA-H2A inh 1.5, Vif A3G 6%, B2AR ag -3, HNF4A DNA FP 1.5, UCH37 DUB inh 0.3, Ecoli growth 0.67 and A1 inh 0.6.
For COc1ccc(NC(=O)c2cc(SC)ccc2Cl)cc1 the results were LANA-H2A inh -1.1, Vif A3G 15%, B2AR ag 2, HNF4A DNA FP -0.5, UCH37 DUB inh 4.8, Ecoli growth 0.7 and A1 inh -0.9.
O=C(c1cc(-c2ccccc2)on1)N1CCN(Cc2ccc3c(c2)OCO3)CC1 was read as Vif A3G -5%, B2AR ag -5, HNF4A DNA FP 1.2, UCH37 DUB inh 0.4 and Ecoli growth 0.63.
`CCOC(=O)/C=c1\s/c(=C\c2ccc(C#N)cc2)c(=O)n1CC(=O)Nc1cccc(C)c1C` gave LANA-H2A inh -2.6, Vif A3G 6%, B2AR ag 1, HNF4A DNA FP 13 and A1 inh 3.6.
CC(C)(C)C(=O)NCCN1CCN(C(=O)C(C)(C)C)CC1 was read as LANA-H2A inh -1.2, Vif A3G 6%, B2AR ag 3, HNF4A DNA FP 3.6, UCH37 DUB inh 2.6, Ecoli growth 0.7 and A1 inh 0.2.
Screening O=[N+]([O-])c1ccc(/C=N/N2CCN(Cc3ccccc3)CC2)cc1 returned LANA-H2A inh 0.8, B2AR ag -2, HNF4A DNA FP 1.2 and A1 inh 1.2.
`O=[N+]([O-])c1ccc(CN2CCCCCC2)cc1` gave LANA-H2A inh -6.5, B2AR ag -2, HNF4A DNA FP 5.5, UCH37 DUB inh 3.2, Ecoli growth 0.65 and A1 inh -0.5.
Screening CCOC(=O)c1cnn(CCOC(=O)Cc2cccs2)c1NC(=O)Cc1cccs1 returned LANA-H2A inh -3.3, Vif A3G 6%, B2AR ag -17, HNF4A DNA FP 0.7, UCH37 DUB inh 3.3, Ecoli growth 0.74 and A1 inh 0.4.
Screening O=C(CSc1ccc([N+](=O)[O-])cn1)Nc1ccc2c(c1)OCCO2 returned LANA-H2A inh 0.2, Vif A3G 15%, B2AR ag -1, HNF4A DNA FP -2.3, UCH37 DUB inh 8.6, Ecoli growth 0.66 and A1 inh -0.3.
`Cc1ccc(C)c(CN2CCNC2=O)c1` gave LANA-H2A inh 1.4, Vif A3G 3%, B2AR ag 4, HNF4A DNA FP 1.7, UCH37 DUB inh 4.3, Ecoli growth 0.69 and A1 inh -0.1.
Screening CCC(C)(NC(=O)c1ccccc1)C(=O)O (stereo not given) returned LANA-H2A inh 4.2, Vif A3G 31%, B2AR ag -6, HNF4A DNA FP -1.9, UCH37 DUB inh 2.2, Ecoli growth 0.63 and A1 inh -0.5.
Screening CN(C(=O)CSc1n[nH]c(=O)[nH]c1=O)c1ccccc1 returned LANA-H2A inh 1.2, B2AR ag 7, HNF4A DNA FP -4.8, UCH37 DUB inh 1.0, Ecoli growth 0.72 and A1 inh 2.8.
Cn1c(CCN2CCN(c3ccccn3)CC2)nc2cc(NS(=O)(=O)c3ccc(Cl)cc3)ccc21 was read as LANA-H2A inh -5.9, Vif A3G -2%, B2AR ag 0, HNF4A DNA FP 1.9, UCH37 DUB inh 1.1, Ecoli growth 0.66 and A1 inh -0.1.
COc1cc(C(=O)N2CCN(c3ccc(C)cc3C)CC2)cc(OC)c1OC was read as LANA-H2A inh 1.9, Vif A3G 2%, B2AR ag -2, HNF4A DNA FP 3.2, UCH37 DUB inh 5.0, Ecoli growth 0.73 and A1 inh -0.8.
